HSV replic up = increases HSV replication in cells; 220,000 compounds, 0.005% hits; AID 1956; HSV replication augmentation in cells, fold increase; maximum fold increase;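 active = peak rise of 1.5-fold or more in the series; inconclusive = self-fluorescent or not available for retest; tested in PC3 cells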;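 also: first round at 10 µM; read as green reporter fluorescence; hits show the peak of a series up to 25 µM; 1 = signal of infected wells without compound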
GALR2 ag = activates the human galanin receptor 2. GALR2-expressing cells, agonist activation read-out. activation, %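 (tested at 5 µM)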. 140,000 compounds, 0.48% hits. AID 803;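 active = above mean plus 3 SD of all compounds, about 5% in these data, not always enough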;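 also: 0% = vehicle buffer wells and 100% = reference agonist at full effect; tested in CHO reporter cells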
Target sequence (O43603 whole entry, looked up): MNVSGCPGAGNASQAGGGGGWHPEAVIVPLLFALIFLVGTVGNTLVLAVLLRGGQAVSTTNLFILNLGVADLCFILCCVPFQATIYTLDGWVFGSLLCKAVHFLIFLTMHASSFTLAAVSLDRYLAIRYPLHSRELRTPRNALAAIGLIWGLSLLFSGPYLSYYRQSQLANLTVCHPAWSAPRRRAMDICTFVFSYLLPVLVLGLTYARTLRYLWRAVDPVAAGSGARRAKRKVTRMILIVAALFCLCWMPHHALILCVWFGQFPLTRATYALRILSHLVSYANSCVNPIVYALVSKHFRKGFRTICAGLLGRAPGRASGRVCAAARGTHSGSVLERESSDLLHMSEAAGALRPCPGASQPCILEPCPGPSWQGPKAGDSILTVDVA
PKD1 kinase inh = blocks activity of human protein kinase D1; PKD1 kinase fluorescence polarization assay; 200,000 compounds, 0.056% hits; inhibition, %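 (about 10 µM by stock and volumes)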; Q15139;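 active = inhibition of 50% or more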;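 also: controls were vehicle for no effect and a reference inhibitor for full effect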
RGS16-Gao = RGS16-Galphao interaction regulator (human) | bead-based flow cytometry RGS16-Galphao binding, fluorescence; actives lie on both sides | 220,000 compounds, 0.38% hits | AID 1441 | binding response (% of control), % at 10 µM;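 active = below 25% or above 175%, edge rows of some plates excepted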;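 also: Galphao activated by GDP with aluminum fluoride before binding; 100% = wells without compound and 0% = beads without RGS; some results beyond the cut were filed as inactive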
Target sequence (O15492 whole entry, looked up): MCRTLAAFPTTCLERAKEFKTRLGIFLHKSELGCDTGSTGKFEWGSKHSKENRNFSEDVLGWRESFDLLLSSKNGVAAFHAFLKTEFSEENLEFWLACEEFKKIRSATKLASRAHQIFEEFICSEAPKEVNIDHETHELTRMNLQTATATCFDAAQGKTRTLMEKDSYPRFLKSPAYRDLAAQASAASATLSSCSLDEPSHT
Target sequence (P09471 whole entry, looked up): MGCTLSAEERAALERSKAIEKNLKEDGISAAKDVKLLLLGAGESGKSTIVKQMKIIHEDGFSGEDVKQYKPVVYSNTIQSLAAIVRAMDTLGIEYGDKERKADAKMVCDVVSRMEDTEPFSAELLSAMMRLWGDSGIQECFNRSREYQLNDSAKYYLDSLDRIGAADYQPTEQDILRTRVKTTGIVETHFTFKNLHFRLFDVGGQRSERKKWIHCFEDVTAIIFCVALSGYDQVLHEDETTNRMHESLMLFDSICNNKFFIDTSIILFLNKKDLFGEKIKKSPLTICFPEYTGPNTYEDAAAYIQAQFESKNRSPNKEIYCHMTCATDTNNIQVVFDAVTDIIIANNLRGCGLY
Insulin prom inh = TRM-6 insulin promoter activity inhibition; TRM-6 cells (human fetal islet line), insulin promoter-eGFP reporter, imaging; reporter expression induced with tamoxifen; inhibition, % at 2 µM; 130,000 compounds, 0.9% hits; AID 1273;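 active = inhibition above the mean plus 3 SD, with well images judged a real hit on visual review, cut at about 60% in these data, passing the limit was not always enough; inconclusive = inhibition over the cutoff but images rejected on review; inactive = inhibition not above the cutoff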
Insulin prom inh cell count = recorded beside Insulin prom inh, whose call it bears; normalized cell count, %; measured here: cell count, toxicity; reference of the scale not given here;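 cells exposed to compound for 48 h; stained nuclei by imaging scaled within each plate; lower means fewer cells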
HSV replic up primary fold = also measured in HSV replic up; calls as there; fold increase; compound at 10 µM; measured here: primary screen fold increase 10 uM; tested in PC3 cells;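 GFP signal in the first replicate; 1 = infected wells without compound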
Starred values were filed as active, the others as inactive; i = inactive; ? = inconclusive; / = not tested or not shown.

SMILES	HSV replic up	HSV replic up primary fold	GALR2 ag	PKD1 kinase inh	RGS16-Gao	Insulin prom inh	Insulin prom inh cell count
Cc1cccc(-n2c(C)n[nH]c2=S)c1	i	1	-1.4	7.9	101.1	-3.3	138.6
COc1cc2c(C(=O)NC3CCCCCC3)cn(C)c(=O)c2cc1OC	i	0.93	0.1	-2.4	106.7	27.3	143.0
CC1Cc2ccccc2N1Cc1nc2scc(-c3cccs3)c2c(=O)[nH]1 (centres undefined)	i	0.63	-2.6	-7.1	51.3	/	/
COc1ccc(C2=NO[C@@H]3C(=O)N(Cc4ccccc4)C(=O)[C@H]23)c(OC)c1	i	0.74	/	/	99.5	/	/
OC(CNCc1ccco1)Cn1c2ccc(Br)cc2c2cc(Br)ccc21 (centres undefined)	i	0.53	-1.9	-6.7	101.8	-13.5	101.9
COc1ccc(CNC(=O)C2CCN(S(=O)(=O)c3ccc(-c4nn[nH]n4)cc3)CC2)cc1	i	0.96	-0.2	-19.6	113.2	/	/
Cc1snc(SCC(=O)c2ccc(F)cc2)c1C#N	/	/	/	-5.8	104.8	-21.4	104.7
Cn1cccc1/C=N/NC(=O)c1sc2cc(Cl)ccc2c1Cl	i	0.88	-1.4	12.6	101.7	8.8	127.5
CC(=O)c1c(C)[nH]c(C(=O)CN2C(=O)NC(CCc3ccccc3)C2=O)c1C (centres undefined)	i	0.94	/	/	112.7	/	/
OCCC1CN(Cc2cccn2-c2nccs2)CCN1Cc1ccccc1 (centres undefined)	i	1.02	/	/	103.0	/	/
O=C(NCc1ccccc1F)C1CCN(C(=O)NCc2ccccc2)CC1	i	0.94	-0.9	4.0	100.8	/	/
COc1ccc(NS(=O)(=O)c2ccc(SC)cc2)c(OC)c1	i	1.12	-1.2	7.9	109.0	-3.6	133.9
COc1cccc2[nH]c3c(N4CCc5ccccc5C4)ncnc3c12	i	0.69	/	/	99.7	/	/
COc1ccc(C(=O)NNC(=O)c2cc(C)[nH]n2)cc1	i	0.98	/	-5.1	171.5	11.1	55.2
S=C(NCCc1ccccc1)Nc1ccc(Cl)cc1Cl	i	0.93	-2.5	-3.7	103.3	/	/
O=C(NC(Cc1ccccc1)C(=O)O)/C(=C/c1ccc([N+](=O)[O-])cc1)NC(=O)c1ccccc1Br (centres undefined)	i	0.97	/	6.8	104.9	14.3	104.4
CCOC(=O)c1cc2c(ccc3ccccc32)oc1=O	i	0.91	/	8.5	54.7	/	/
COc1cc(OC)c(NC(=O)c2ccoc2C)cc1Cl	i	0.8	-3.4	4.7	103.6	70.7*	95.6*
COc1cc2nc(CSc3nc(-c4ccc(F)cc4)cs3)[nH]c(=O)c2cc1OC	i	1.04	-1.1	-0.7	100.4	-10.7	101.5
COc1ccccc1CNC(=O)CSc1ccc(-c2cccc([N+](=O)[O-])c2)nn1	i	0.92	/	8.3	101.8	/	/
CCOC(=O)N1CCN(C(=O)CSc2nnc(Cc3cccn3C)n2CCc2ccccc2)CC1	i	1.05	0.9	-11.5	98.5	/	/
c1ccc(-c2nnc(SCc3nnc(-c4cccs4)o3)o2)cc1	i	0.89	-2.5	4.0	105.0	-26.0	81.6
CCc1ccc(OCC(=O)Nc2ccc(-c3cc4ccccc4oc3=O)c(OC)c2)cc1	i	0.93	0.1	13.4	99.1	41.9	50.5
CC(=O)Nc1ccc(S(=O)(=O)NCc2cn3c(C)csc3n2)cc1	i	0.94	-2.1	-6.6	96.3	34.2	92.4
Cc1ccc(OCC(=O)Nc2cccc(S(=O)(=O)N3CCOCC3)c2)c([N+](=O)[O-])n1	i	0.87	/	-5.4	99.8	16.7	193.7
COc1ccc(C(=O)NNC(=O)c2cccc(F)c2)cc1	i	0.95	/	8.0	93.9	0.0	126.5
Cn1c(=O)n(CCc2ccccc2)c(=O)c2c1nc1n2CCCN1CCc1ccccc1	i	0.83	-0.1	0.4	114.5	-12.5	85.8
CN(C)NC(=S)Nc1cccc(Cl)c1	i	0.93	/	/	104.8	/	/
Cc1cccc(CSc2ccc3nnc(-c4ccccn4)n3n2)c1	i	0.77	/	3.3	95.3	31.4	64.8
O=C1OCc2ccc(NC(=O)C3CC3)cc21	i	0.88	/	-6.5	103.9	/	/
Cc1cccc(C(=O)NNC2=C(C(=O)C(F)(F)F)CCC2)c1O	i	0.92	-1.2	-2.3	160.3	33.3	92.8
O=C(c1ccccc1)c1ccc(O)cc1O	?	/	/	20.3	92.5	/	/
CN(C)S(=O)(=O)c1cc(NC(=O)COC(=O)/C=C/c2ccco2)ccc1Cl	i	1.02	/	/	98.8	/	/
CC1CC(NC(=O)/C=C/C(=O)O)CC(C)(C)C1 (centres undefined)	i	0.92	/	/	102.5	/	/
O=C(O)c1ccc(N/C(=N\S(=O)(=O)c2ccc(Cl)cc2)c2ccccc2)cc1	i	1.18	/	/	103.6	/	/
CCOC(=O)c1ccc(CSc2nnc(-c3ccncc3)n2N)cc1	i	0.83	-1.2	-9.4	92.5	27.0	66.7
CCCCCC(=O)N/N=C/c1cccs1	i	0.88	-1.7	5.7	104.9	-71.0	112.2
CCSc1nnc(NC(=O)CSc2nncc(=O)n2N)s1	i	0.97	/	-6.6	97.2	-5.3	114.5
COC(=O)c1ccc(/C=N/OCC(=O)NCCc2ccc(OC)c(OC)c2)cc1	i	1.05	/	-5.3	105.0	11.1	96.7
O=C(O)c1cccc(NC(=S)N/N=C/c2c[nH]c3ccccc23)c1	i	0.93	/	3.8	101.2	28.6	133.3
COc1ccccc1Cc1nc(-c2ccc(C)cc2)no1	i	0.88	-2.1	1.7	i	37.0	103.4
Cc1ccc(C(=O)Cn2cnc3ccccc3c2=O)cc1	i	1.07	-1.4	0.8	101.9	-100.0	120.7
CC(=O)C1CCN(Cc2ccccc2)CC1	i	0.98	-1.1	-3.8	126.1	-29.6	79.8
CCOC(=O)c1ccccc1NC(=O)COC(=O)C(CC(C)C)NC(N)=O (centres undefined)	i	0.95	/	-2.9	100.8	35.7	140.9
COc1ccc(NC(=O)c2ccccc2NC(=O)CSc2ccc(C)cc2)cc1	i	0.91	-1.6	-8.6	100.3	/	/

The list goes on (2 carried over from the part before).
SMILES	HSV replic up	HSV replic up primary fold	GALR2 ag	PKD1 kinase inh	RGS16-Gao	Insulin prom inh	Insulin prom inh cell count
CCOC(=O)c1ccccc1NC(=O)COC(=O)C(CC(C)C)NC(N)=O (centres undefined)	i	0.95	/	-2.9	100.8	35.7	140.9
COc1ccc(NC(=O)c2ccccc2NC(=O)CSc2ccc(C)cc2)cc1	i	0.91	-1.6	-8.6	100.3	/	/
CC(C)C(OC(=O)c1cc2c(s1)CCCCC2)C(=O)NC(N)=O (centres undefined)	/	/	-1.0	-0.4	100.0	/	/
CCOC(=O)c1ccc(N2C(=O)CC(Nc3ccc(CCO)cc3)C2=O)cc1 (centres undefined)	i	0.81	-0.4	-4.7	101.0	54.0	31.9
C=C(C)Cn1c(C(C)NC(=O)CCC)nc2ccccc21 (centres undefined)	i	0.98	-1.0	3.1	111.6	/	/
CC(=O)Nc1cccc(-c2csc(Nc3ccc(Cl)cn3)n2)c1	i	0.73	/	-7.8	98.6	/	/
FC(F)(F)c1ccc(Cl)c(N/N=C/c2ccc(N3CCOCC3)s2)c1	i	0.95	1.1	-5.4	106.8	-24.1	112.1
COc1cc(C2CC(=O)Nc3n[nH]c(-c4ccccc4)c32)cc(OC)c1OC (centres undefined)	i	0.7	/	/	87.0	/	/
CCOc1ccc(/C=N/NC(=O)c2c(-c3ccccc3)noc2C)cc1	i	0.88	0.5	2.7	104.1	-48.3	131.8
Cc1c(OCc2ccc([N+](=O)[O-])cc2)ccc2c3c(c(=O)oc12)CCC3	i	0.79	0.7	-3.4	99.7	-193.8	105.8
O=C(CCS(=O)(=O)c1ccccc1)Nc1ccc(-c2nc3ccccc3s2)cc1	i	0.86	-0.3	-0.9	101.0	/	/
CCCCCNCc1ccc(Br)cc1	i	0.93	-2.6	2.9	101.9	/	/
Cc1ccccc1CN1C[C@@H]2C[C@@H](c3cn[nH]c3-c3ccc(F)cc3)N3CCC[C@@]23C1=O	i	0.86	/	-8.7	184.6	-34.8	52.4
Cc1cc(NC(=O)c2ccc(F)cc2)n(CCOC(=O)c2ccc(F)cc2)n1	i	1.15	0.3	-0.9	99.8	/	/
Cc1onc(-c2c(F)cccc2Cl)c1C(=O)N=C(N)N1CC(C)OC(C)C1 (centres undefined)	i	1.14	/	/	91.5	/	/
O=C(N/N=C/c1ccncc1)c1cccc(NC(=O)c2ccc(Cl)cc2)c1	i	0.92	-0.3	-3.8	103.8	-20.0	82.8
O=C(N/N=C/c1ccc(Sc2nc3ccccc3s2)c([N+](=O)[O-])c1)c1ccccn1	i	0.72	-2.6	-8.4	80.7	33.3	93.7

The final 4 entries of the part before lead into the next.
SMILES	HSV replic up	HSV replic up primary fold	GALR2 ag	PKD1 kinase inh	RGS16-Gao	Insulin prom inh	Insulin prom inh cell count
Cc1cc(NC(=O)c2ccc(F)cc2)n(CCOC(=O)c2ccc(F)cc2)n1	i	1.15	0.3	-0.9	99.8	/	/
Cc1onc(-c2c(F)cccc2Cl)c1C(=O)N=C(N)N1CC(C)OC(C)C1 (centres undefined)	i	1.14	/	/	91.5	/	/
O=C(N/N=C/c1ccncc1)c1cccc(NC(=O)c2ccc(Cl)cc2)c1	i	0.92	-0.3	-3.8	103.8	-20.0	82.8
O=C(N/N=C/c1ccc(Sc2nc3ccccc3s2)c([N+](=O)[O-])c1)c1ccccn1	i	0.72	-2.6	-8.4	80.7	33.3	93.7
N=C1C(c2ccc(Br)cc2)=C(O)C2CCc3ccccc3N12 (centres undefined)	i	0.81	-0.1	-12.4	91.4	42.4	68.6
NC(=O)N/N=C/c1ccc(OCc2cccc(Cl)c2)cc1	i	0.87	/	6.0	103.1	/	/
NC(=O)C(=O)N/N=C1\CCc2ccccc21	i	0.99	/	-1.8	99.4	/	/
Cc1nn(Cc2ccccc2)c(C)c1NC(=O)c1cc2nc(-c3ccco3)cc(C(F)(F)F)n2n1	i	1.01	0.4	-4.2	107.9	/	/
O=C(Cn1nnc(-c2cccc(C(F)(F)F)c2)n1)N1CCCCCC1	/	/	-2.6	-1.9	103.1	20.0	73.5
C[C@H](N)c1nnc(SCC(=O)c2ccc(Cl)cc2)o1	i	0.67	-2.5	-10.2	97.5	38.5	89.9
COc1ccc(S(=O)(=O)CCC(=O)N2CCN(c3ccccc3F)CC2)cc1	i	1.04	/	2.3	100.6	/	/
NC(=O)N/N=C/c1cc(Br)ccc1OC(=O)c1ccccc1	i	0.87	-1.7	1.6	106.0	-9.8	99.4
COc1ccc(CCC(=O)Nc2ccc(-c3noc(-c4ccc(OC)c(OC)c4)n3)cc2)cc1	i	0.84	2.7	-1.7	103.9	-25.7	142.9
CCc1ccc(OC(C)c2nnc(SCC(=O)Nc3ncccc3C)n2C)cc1 (centres undefined)	i	0.98	-0.6	-7.6	194.3	-16.7	41.2
COc1ccc(C(C(=O)NC2CCCCC2)N(C(=O)c2sc(C)nc2C)c2ccccc2)cc1 (centres undefined)	i	1.01	-2.0	-0.6	56.5	-6.7	112.2
Cc1ccc(-c2cc(C(F)F)nc(NCc3cccs3)n2)cc1	i	0.91	0.5	-5.8	99.0	-28.6	146.0
O=S(=O)(NCC(Nc1ccccc1)c1ccccc1)c1ccc(Cl)cc1 (centres undefined)	i	0.85	-0.1	5.5	109.0	-40.6	102.4
Cc1ccc2c(n1)CC(C)(C)CC2=O	i	0.92	-1.6	6.0	100.8	/	/
CC(C)C(=O)Nc1ccc(C(=O)N/N=C/c2cc(Br)cc(Br)c2O)cc1	i	1.02	/	-8.1	97.0	/	/
FC(F)Oc1ccc(NC(=S)NCc2cccnc2)cc1	i	0.9	/	-4.5	100.5	2.9	101.8
Cc1cc(C(=O)COC(=O)c2csc3c2CCCC3)c(C)n1C	i	0.83	-3.6	-12.0	100.3	/	/
CC(C)NC(=O)CSc1nnc(C2CC2)n1-c1ccccc1	i	0.95	-1.6	-5.2	98.3	-11.8	228.6
CCOc1ccccc1CN1CCN(S(=O)(=O)CC)CC1	i	0.9	-1.2	-8.9	101.7	/	/
c1ccc(-c2csc(Nc3cccnc3)n2)cc1	i	0.95	/	12.5	97.6	/	/
CC1(CCc2ccccc2)NC(=O)N(Cc2cc([N+](=O)[O-])cc3c2OCOC3)C1=O (centres undefined)	i	0.66	/	-5.0	103.6	/	/
COc1cc(/C=N/Nc2ccc(C(=O)O)cc2)ccc1O	i	0.97	/	0.6	101.2	0.0	106.7
N#Cc1cccc(C(c2nnnn2CCc2ccccc2)N2CCN(C3CCCCC3)CC2)c1 (centres undefined)	i	0.93	-1.7	-5.2	104.0	7.1	136.3

Assay outcomes from PubChem BioAssay.
